# Bioassay records as filed in PubChem BioAssay.
# StopGo FLuc = Primary qHTS Assay for Foot and Mouth Disease Virus Antivirals against NCGC Sytravon and CBC Compound Libraries: Firefly Luciferase Signal | hit rate 0.23% among 120,000 | HEK cells with a luciferase reporter of 2A StopGo recoding | Potency, µM (doses to about 57.5 µM), for the others: at the top dose signal change, negative = less light; active = well fitted falling curve with a large enough effect; inconclusive = small, poorly fitted or top-dose-only effect; inactive = no such curve, though single readings can be large or run the other way; further: nearly all actives have a fitted effect of over 60% in size; overnight with compound
# 2A Renilla = Primary qHTS Assay for Foot and Mouth Disease Virus Antivirals against NCGC Sytravon and CBC Compound Libraries: Renilla Luciferase Signal | hit rate 0.32% among 120,000 | HEK cells with a luciferase reporter of 2A StopGo recoding | Potency, µM (titrated, usually from 57.5 µM), for inactives: at the highest dose signal change, negative = less light; active means well fitted falling curve with a large enough effect; inconclusive means small, poorly fitted or top-dose-only effect; inactive means no such curve, though single readings can be large or run the other way; further: nearly all actives have a fitted effect of over 55% in size; overnight with compound
# The depositor's hits bear a star; ? = inconclusive; [ ] = remark or other dose. On the % scale 0 is the no-effect control and ±100 the full control effect; potency means the concentration at half of the fitted maximal effect.
# The first three compounds (preview)
# Fields – StopGo FLuc, 2A Renilla
> COc1ccc(-c2nc3nc(C)cc(N4CCCCCC4)n3n2)cc1
  0%, 10%
> Cc1cccc(C(=O)O)c1O
  -5%[11.5 µM], -12%
> CCN(CC)c1ccc([N+](=O)[O-])cc1C(=O)NCc1coc(-c2cccs2)n1
  -6%, 13%

# Results, from the first entry:
# Fields – StopGo FLuc, 2A Renilla
> COc1ccc(-c2nc3nc(C)cc(N4CCCCCC4)n3n2)cc1
  0%, 10%
> Cc1cccc(C(=O)O)c1O
  -5%[11.5 µM], -12%
> CCN(CC)c1ccc([N+](=O)[O-])cc1C(=O)NCc1coc(-c2cccs2)n1
  -6%, 13%
> O=C(CN1CCN(c2ncccc2C(F)(F)F)CC1)NC1CC1
  3%, -7%
> Cc1ccc(C)c(-c2nc(Cn3c(=O)cc(-c4ccccc4)c4c(C)nn(C)c43)c(C)o2)c1
  2%, -9%
> CC1=C(C(N)=O)C(c2cccnc2)n2nc(SCc3ccccc3F)nc2N1 (stereo unspecified)
  -9%, -3%
> N#Cc1ccc(OC(=O)Cc2ccc3c(c2)OCCO3)cc1
  21%, 0%
> CCOc1cc(C2/C(=C(\O)c3ccc(Cl)cc3)C(=O)C(=O)N2c2cc(C)on2)ccc1O (stereo unspecified)
  27%, 7%
> CCc1nn(CC(=O)N2CCN(c3cccc(C(F)(F)F)c3)CC2)c(=O)c2cccn12
  23%, 200%[activator]
> O=C(Cn1cc(SCc2ccccc2F)c2ccccc21)N1CCCCC1
  81%[activator], 67%[activator]
> CCCC(NC(=O)Cc1n[nH]c(=O)c2ccccc12)c1ccccc1 (stereo unspecified)
  -5%, 5%
> CCC(=O)Nc1ccc(Cl)c(NC(=O)c2ccc3c(c2)OCCO3)c1
  34%[activator], 5%
> Cc1cccc(C)c1OCCCOc1ccccc1/C=N/NC(=O)c1cccc(Cl)c1
  21%, 2%
> O=C(Nc1ccccc1C(F)(F)F)c1ccc(Cl)cc1
  0%, 22%
> COCCNc1nc2c(c(=O)[nH]c(=O)n2C)n1Cc1ccccc1Cl
  11%, 3%
> NC(=O)C(c1ccccc1)(c1ccccc1)[C@@H]1CCN(CCc2ccc3c(c2)CCO3)C1
  -34%, -23%
> CCOC(=O)C(C)Oc1ccc2c(-c3ccccc3)cc(=O)oc2c1 (stereo unspecified)
  24%, 9%
> COCCn1c(SCC(=O)N(C)CCOc2ccc(Cl)cc2)nnc1-c1ccc(Cl)cc1
  -6%, 60%[activator]
> Cc1c(C(=O)Nc2ccc(F)cc2F)oc2ccc3c(c12)C(=O)CC(C)(C)O3
  44%[activator], 6%
> Cc1c(C(=O)N2CCCCC2)c(S(=O)(=O)NCCc2ccc(Cl)cc2)c(C)n1C
  -8%, 164%[activator]
> COc1ccc(N2CC(c3nnc(NC(=O)CC(C)(C)C)s3)CC2=O)cc1 (stereo unspecified)
  3%, 2%
> Cc1ccc(C(=O)CCC(=O)O)s1
  -4%, -3%
> Clc1nnc(-c2ccccc2)n1C1CC1
  -7%, -14%
> CCOc1c(Cl)cc(CNc2ccc3[nH]c(=O)[nH]c3c2)cc1OC
  2%, 34%[activator]
> COc1ccc(/C=C/C(=O)OCCCC(c2ccc(F)cc2)c2ccc(F)cc2)cc1OC
  ?, ?
> CCOC(=O)c1c(-c2ccc(C)cc2)csc1NC(=O)c1nc(SCC)ncc1Cl
  -15%, -1%
> COc1ccc(-n2c(-c3ccc(C)cc3)cc3c2CC(C)(C)CC3=O)cc1Cl
  11%, -17%
> c1ccc(-c2nc(SCc3ncc(-c4ccccc4)o3)n[nH]2)cc1
  5%, 9%
> Cn1c(=O)c2c(ncn2CC(=O)OCC(=O)NC(=O)c2ccccc2)n(C)c1=O
  -11%, -8%
> CC(C)c1nc(OCC(=O)NCCc2ccccc2)c(C#N)c2c1CCCC2
  7%, 6%
> CCS(=O)(=O)NC(C)C(=O)O (stereo unspecified)
  1%, 2%
> CCSC1=N/C(=C\c2sccc2C)C(=O)S1
  4%, 7%
> Cc1cccc(-c2noc(-c3ccccc3OCC(=O)Nc3ccc([N+](=O)[O-])cc3)n2)c1
  4%, -6%
> Clc1cccc(-c2ccc(CNC3CN4CCC3CC4)o2)c1 (stereo unspecified)
  -4%, -14%
> COC(=O)c1sc(=S)n(-c2cccc(OC)c2)c1N
  0%, 0%
> CCC(C(=O)NCc1ccc(C)cc1)N1C(=O)CCn2nc(C)cc21 (stereo unspecified)
  0%, -5%
> Cc1cccc(N2CCN(CCNC(=O)C3COc4ccccc4C3)CC2)c1C (stereo unspecified)
  -2%, -10%
> COc1ccc(O)c(C2Nc3ccccc3-n3c(-c4ccccc4)c4c(=O)n(C)c(=O)n(C)c4c32)c1 (stereo unspecified)
  41%[activator], -13%
> CCOC(=O)c1cnc2ccc(OC)cc2c1Nc1cccc(Cl)c1C
  -3%, -8%
> Cc1cc2oc(=O)cc(Cn3nc(C)c(C)c(C#N)c3=O)c2cc1C
  0%, 55%[activator]
> CC1CCC(NC(=O)C2(C)Cc3ccccc3C(=O)N2Cc2ccc(F)cc2)CC1 (stereo unspecified)
  ?, -9%
> N#Cc1ccccc1NC(=O)c1cnc(N2CCOCC2)c2ccccc12
  -22%, -4%
> COc1ccc(-c2nnc(Nc3ccc(OC)c(C(N)=O)c3)c3ccccc23)cc1
  ?, -2%
> COc1ccc(Cn2c(SCc3ccc(C(=O)NC(C)C)cc3)nc3cccnc32)cc1
  -15%, 4%
> O=C(CCBr)N1CCN(C(=O)CCBr)CC1
  26%[11.5 µM], 1%
> COc1ccccc1NC(=O)CSc1nc2c(sc3ccccc32)c(=O)n1CCN(C)C
  10%, -4%
> CCOC(=O)COc1ccc(Br)cc1/C=C1\NC(=O)NC1=O
  11%, 7%
> CC1(C)CC(C(CC(=O)O)Cc2ccccc2)CCO1 (stereo unspecified)
  -9%, -3%
> Cc1csc2nc(COC(=O)c3cccc(NC(=O)COc4ccc(Cl)cc4)c3)cc(=O)n12
  -7%, 2%
> CCCNC(=O)C1CCN(c2nnc(-n3cccc3CNc3ccc(OCC)cc3)s2)CC1
  -4%, -6%

# (further entries)
# Fields – StopGo FLuc, 2A Renilla
> O=C(Cn1ncn2nc(-c3cccs3)cc2c1=O)NCc1ccc(Cl)cc1
  -3%, 0%
> C=CCN(CC=C)S(=O)(=O)c1cccc2nsnc12
  4%, 6%
> Cc1cccc(NC(=O)CCn2cnc3ccccc3c2=O)c1
  4%, -8%
> CCOc1ccccc1Nc1nc(N)c(C(=O)c2ccc(CC)cc2)s1
  7%, -1%
> COC(=O)[C@]12C[C@H](CC(=O)N3CCOCC3)C(=O)N(Cc3ccccc3)C1=C[C@H](COCc1ccccc1)O[C@@H]2C
  -1%, 17%
> c1ccc2c(c1)CCc1ccccc1N2
  -13%[11.5 µM], -4%
> Cc1ccc(S(=O)(=O)c2cnc(SCC(=O)Nc3ccccc3C(F)(F)F)[nH]c2=O)cc1C
  -22%, -8%
> Cn1c(=O)[nH]c(=O)c2c1nc(N1CCN(Cc3ccccc3Cl)CC1)n2C/C=C/c1ccccc1
  13%, 13%
> C/C(=N/Nc1ccccc1C(F)(F)F)c1ccccc1Br
  8%, -14%[1.06 µM]
> NC(=O)c1ccc(S(=O)(=O)N2CCN(c3nc(-c4cccnc4)nc4ccccc34)CC2)cc1
  -10%, -6%
> CCOc1ccccc1CNC(=O)c1cc(-c2ccc(C)c(C)c2)nc2ccccc12
  -21%, -2%
> O=C(Nn1cnnc1)c1ccc(Cl)c(Cl)c1
  9%, 0%
> CCCn1nc(C(=O)OC(C)C(=O)NCc2ccc(F)cc2)c2ccccc2c1=O (stereo unspecified)
  4%, 2%
> CC(=O)c1ccc(NC(=O)COC(=O)Cc2cccc3ccccc23)cc1
  36%[activator], -6%
> Cc1cc(C)c(NC(=O)C2CCN(c3nnc(C)c4c(C)n(-c5ccccc5)nc34)CC2)c(C)c1
  -22%, -18%
> CCOC(=O)c1ccc(NC(=O)CCc2nc3cccnc3n2Cc2cccs2)cc1
  -22%, -6%
> CC(C)C(=O)N(Cc1ccc2cc[nH]c2c1)C1CC1
  6%, 1%
> CCC(C(=O)N1CCN(c2ccccc2)CC1)n1nc(C)n2c(cc3sccc32)c1=O (stereo unspecified)
  -9%, -9%
> CCc1ccccc1N1CNc2c(sc3nc(C)cc(COC)c23)C1=O
  9%, 9%
> CCOC(=O)C1=C(C)OC(n2cccc2)=C(C#N)C1c1ccc(OC)c(OC)c1 (stereo unspecified)
  12%, 30%
> Cc1oc(-c2ccccc2)nc1CC(=O)NCCc1cccc(F)c1
  10%, -3%
> CC(C)(C)OC(=O)N1CCC(c2c(C(=O)Nc3ccc4c(c3)OCO4)cnn2-c2ccc(F)cc2F)CC1
  24%, -5%
> COCCNC(=O)c1ccc(CSc2nc3ccncc3n2Cc2ccccc2)cc1
  24%, 17%
> CCCCN(Cc1ccccc1)c1ccc(NS(=O)(=O)c2ccc(C)cc2C)cc1C(=O)O
  19%, 134%[activator]
> O=C(OCc1cccc(Cl)c1)c1cc(Cl)c[nH]1
  0%, 52%[activator]
> CCCNC(C)c1cc2ccccc2o1 (stereo unspecified)
  -4%, -1%
> CC1CCN(CCC(=O)O)CC1
  -6%, 3%
> Cc1cccc(Nc2nc(C(=O)NC3CCCCC3)cs2)c1
  ?, ?
> O=C(Nc1cccc(OC2CCCC2)c1)C1CCCO1 (stereo unspecified)
  98%[activator], 45%[activator]
> CC(C)NC(=O)c1nc(-c2cccc3[nH]ccc23)no1
  229%[activator], 0%
> CSc1cccc(NS(=O)(=O)c2ccc3[nH]cc(C(=O)N4CCCC4)c(=O)c3c2)c1
  4%, 0%
> CC1=C(C(=O)Nc2ccc(C(=O)NCc3ccc(OC(C)C)cc3)c(Cl)c2)SCCO1
  14%, 7%
> CC(C)(C)C(=O)COC(=O)c1cc(-c2ccccc2)c(N2CCOCC2)s1
  -14%, 6%
> Cc1nn2c(nnc3c(=O)n(-c4cc(Cl)cc(Cl)c4)ccc32)c1-c1ccccc1
  -5%, 1%
> Cc1ccc(C(=O)C(C)Oc2ccccc2Cl)cc1 (stereo unspecified)
  120%[activator], 17%
> Cc1ccc(C)c(CSc2cn(CC(=O)N3CCCC3)c3ccccc23)c1
  60%[activator], 0%
> Cc1ccc(C)c(N2CCN(CCCNC(=O)C3COc4ccccc4C3)CC2)c1 (stereo unspecified)
  -22%, -1%
> COc1cc(Nc2nc3ccccc3nc2NS(=O)(=O)c2cccs2)cc(OC)c1
  0%, 69%[activator]
> Brc1ccc(-c2nnc(-c3cccs3)o2)o1
  176%[activator], 1%
> O=C(N/N=C/C=C/c1ccccc1[N+](=O)[O-])NC1CCCCC1
  ?, ?
> Cn1cc(S(=O)(=O)N2CCCCC2)cc1C(=O)N1CCN(c2ccccc2F)CC1
  0%, -4%
> CC(C)CCN(CC(N)=O)C1CC1
  7%, 3%
> CCCCN(CC)C(=O)CSc1nc2n[nH]c(C)c2c(=N)n1-c1cccc(C)c1
  -29%, -3%
> CCOc1ccc(N2C(=O)c3cccnc3C2Nc2ccc(C)cc2C)cc1 (stereo unspecified)
  29%, 13%
> CCCOc1c(Cl)cc(C(=O)Nc2nnc(C(C)C)s2)cc1OCC
  4%, 6%
> O=S(=O)(c1cccc(F)c1)N1CCN(Cc2ncc(-c3ccc(F)cc3)o2)CC1
  48%[activator], -3%
> COc1ccc(S(=O)(=O)Nc2nc3ccccc3nc2NCc2ccccc2)cc1
  7%, 131%[activator]
> O=C(NCc1ccco1)c1cc(-c2cccs2)nc2ccccc12
  20%, 3%
> O=C(c1ccc2c(c1)N(Cc1ccc(Cl)cc1)C(=O)c1ccccc1S2(=O)=O)N1CCCCC1
  -22%, 7%
> CCc1ccc(CNC(=O)CSc2cc(=O)n(C)c3ccc(Cl)cc23)cc1
  2%, 2%

# New compounds follow:
# Fields – StopGo FLuc, 2A Renilla
> COc1ccccc1C(=O)Nc1cccc(C(=O)OCc2cc(=O)n3cc(C)sc3n2)c1
  -28%, -14%
> CCOc1ccccc1NC(=O)C(=O)Nc1ccc2nc3n(c(=O)c2c1)CCCCC3
  9%, -2%
> C#CC[N+](C)(C)C/C=C(\Cl)C(=C)Cl
  7%, 0%
> CCn1c2ccccc2c2cc(CN3CCN(Cc4cccc(Cl)c4)CC3)ccc21
  ?, -5%
> CCONC(=O)c1ccc(OC)cc1O
  17%, 5%

# By substructure, the entries above with an NH in an aromatic ring
# Fields – StopGo FLuc, 2A Renilla
> CCCC(NC(=O)Cc1n[nH]c(=O)c2ccccc12)c1ccccc1 (stereo unspecified)
  -5%, 5%
> COCCNc1nc2c(c(=O)[nH]c(=O)n2C)n1Cc1ccccc1Cl
  11%, 3%
> CCOc1c(Cl)cc(CNc2ccc3[nH]c(=O)[nH]c3c2)cc1OC
  2%, 34%[activator]
> c1ccc(-c2nc(SCc3ncc(-c4ccccc4)o3)n[nH]2)cc1
  5%, 9%
> Cc1ccc(S(=O)(=O)c2cnc(SCC(=O)Nc3ccccc3C(F)(F)F)[nH]c2=O)cc1C
  -22%, -8%
> Cn1c(=O)[nH]c(=O)c2c1nc(N1CCN(Cc3ccccc3Cl)CC1)n2C/C=C/c1ccccc1
  13%, 13%
> CC(C)C(=O)N(Cc1ccc2cc[nH]c2c1)C1CC1
  6%, 1%
> O=C(OCc1cccc(Cl)c1)c1cc(Cl)c[nH]1
  0%, 52%[activator]
> CC(C)NC(=O)c1nc(-c2cccc3[nH]ccc23)no1
  229%[activator], 0%
> CSc1cccc(NS(=O)(=O)c2ccc3[nH]cc(C(=O)N4CCCC4)c(=O)c3c2)c1
  4%, 0%
> CCCCN(CC)C(=O)CSc1nc2n[nH]c(C)c2c(=N)n1-c1cccc(C)c1
  -29%, -3%

# Not all compounds are listed; rates above refer to the full screens.
